H5N1 antiviral: MDCK cell protection from H5N1 avian flu; cytopathic effect, luminescence, 72 h; active compounds read high; no value below 0 was filed and about half of the inactive calls have no number; reference of the scale not given here; inhibition, % at 50 µM; 0.07% of 96,000 active; in the data active means inhibition above about 25%
Starred values were filed as active, the others as inactive; i = inactive.

| mol | H5N1 antiviral |
| --- | --- |
| NC(=O)CSc1nnc2sc3ccccc3n12 | 20 |
| COc1cccc(OCC(=O)Nc2ccc(OC)c(OC)c2)c1 | i |
| CC(C)NS(=O)(=O)c1ccc(OCC(=O)NCCC2=CCCCC2)cc1 | i |
| CCc1nn(C(C)C(=O)N2CCc3ccccc3C2)c(=O)c2cc3occc3n12 (stereo unspecified) | 3.6 |
| CCOC(=O)Cc1nnc(NC(=O)CSc2ccc(C)cc2)s1 | i |
| Cn1cccc1C(=O)N1CCN(c2cccc(C(F)(F)F)c2)CC1 | i |
| O=C(NCCN1CCOCC1)c1csc2c1CCCC2 | 0.5 |
| Nc1nc(SCC(=O)N2CCc3ccccc32)[nH]c(=O)c1-c1ccccc1 | i |
| CCn1c(SCC(=O)Nc2c(C)n(C)n(-c3ccccc3)c2=O)nnc1-c1cccc(C)c1 | i |
| CCC(C(=O)Nc1ccccc1OC)n1c(C(=O)OC)cc2ccsc21 (stereo unspecified) | i |
| CCCCn1nnnc1NCc1cccc(OC)c1OC | 0.6 |
| CCN(CC)c1ccc(NC(=O)CN2CCN(c3ccccc3F)CC2)cc1 | i |
| Cc1[nH]c(=O)[nH]c(=O)c1S(=O)(=O)N1CCCC(C(=O)NCc2ccco2)C1 (stereo unspecified) | i |
| COc1ccc(NC(=O)CSc2nnc(-c3ccccc3)n2N)cc1 | i |
| CCn1ncc(C2=NOC(C(=O)NCc3ccc(OC)cc3)C2)c1C (stereo unspecified) | i |
| COc1ccc(NC(=O)CN(C)S(=O)(=O)c2ccc(Cl)cc2)c([N+](=O)[O-])c1 | i |
| O=C(Nc1ccc(O)c(-c2nc3ccccc3o2)c1)C1(c2ccccc2)CCCC1 | i |
| O=C(Cn1nc(C(F)F)cc1C(F)F)NNC(=S)Nc1ccc(Cl)cc1 | 1.6 |
| CCOC(=O)c1nc2sc(C)c(C)c2c(=O)[nH]1 | 0.7 |
| CCCc1cc(C(=O)Nc2ccccc2SC)no1 | i |

Continuation:
| mol | H5N1 antiviral |
| --- | --- |
| O=C1CN(C(=O)COC(=O)c2cccc(S(=O)(=O)NCc3ccccc3)c2)c2ccccc2N1 | 0.2 |
| C=CCn1c(SCC(=O)N(C)C2CCS(=O)(=O)C2)nnc1-c1ccncc1 (stereo unspecified) | i |
| Cc1cc(=O)[nH]c(SCC(=O)c2ccc(C)c(C)c2)n1 | 0.3 |
| CC(Sc1ncc(C#N)c(N)n1)C(=O)Nc1ccccc1 (stereo unspecified) | i |
| C=CCOc1ccc(NC(=O)C(=O)NCCCn2ccnc2)cc1 | 0.6 |
| Cc1cccc(OCC(=O)NCCN2CCOCC2)c1 | 0.3 |
| COc1ccc(C2C(C#N)=C(N)Oc3cc(O)ccc32)cc1OC (stereo unspecified) | 2.9 |
| COc1cccc(C2(O)CCN(C(=O)C3CCC3)CC2)c1 | i |
| COc1ccc(NC(=O)COc2nsnc2N2CCCCC2)cc1 | 0.2 |
| OC(c1ccccc1)(c1ccccc1)C1CCCN1 (stereo unspecified) | i |
| CCC(C)C(NC=C1C(=O)OC(C)(C)OC1=O)C(=O)O (stereo unspecified) | i |
| CCN1CCc2nc(SCC(=O)Nc3ccc(OC)cc3)c(C#N)cc2C1 | 1.3 |
| COc1cccc2c(=O)n(CC(=O)Nc3cccc(F)c3)ccc12 | 0.8 |
| CCOC(=O)C1=C(O)/C(=C/c2ccc(-c3ccccc3C(=O)O)o2)SC1=Nc1ccc(OC)cc1 | 0.1 |
| CCCCOc1ccc(OC(=O)c2cccnc2)cc1 | i |
| COc1ccc(Cc2noc(-c3ccc(OC)c(OC)c3)n2)cc1OC | 0.8 |
| CN1CCN(Cc2nc3c(c(=O)n(C)c(=O)n3C)n2Cc2cccc3ccccc23)CC1 | 2.7 |
| COC(=O)c1ccc(OC)c(CSc2nnc(COc3ccccc3)o2)c1 | 0.1 |
| Cn1c(=O)c2c(nc(SCc3nn[nH]n3)n2Cc2ccccc2F)n(C)c1=O | 0.2 |
| CCOc1ncccc1C(=O)OCCN1C(=O)c2ccccc2C1=O | 0.3 |

2 successive compounds already listed, quoted:
| mol | H5N1 antiviral |
| --- | --- |
| O=C1CN(C(=O)COC(=O)c2cccc(S(=O)(=O)NCc3ccccc3)c2)c2ccccc2N1 | 0.2 |
| C=CCn1c(SCC(=O)N(C)C2CCS(=O)(=O)C2)nnc1-c1ccncc1 (stereo unspecified) | i |

The list goes on:
| mol | H5N1 antiviral |
| --- | --- |
| Cc1cccc(/C(N)=N/OC(=O)c2cccs2)c1 | 0.2 |
| CCNC(=O)c1cc2c(=O)n3cccc(C)c3nc2n(CCc2ccccc2)c1=N | i |
| Cc1ccc(C(=O)Nc2ccc(Oc3ccc(C(=O)O)c(C(=O)O)c3)cc2)cc1C | 0.9 |
| NC(=O)C1CCCN(CCc2ccccc2)C1 (stereo unspecified) | i |
| COc1ccc(OC)c(-n2c(-c3cnccn3)n[nH]c2=S)c1 | i |
| CC(NC(=O)C1CCCN(S(=O)(=O)c2cccc3nonc23)C1)c1ccccc1 (stereo unspecified) | i |
| COc1cc(C(=O)O)ccc1OCC(=O)N1CCOCC1 | 0.8 |
| COc1ccc(S(=O)(=O)Nc2ccc3oc(C)c(C(=O)O)c3c2)cc1 | 0.2 |
| COC(=O)c1ccc(Oc2cc(C)nc(NCc3ccccc3)n2)cc1 | 0.4 |
| O=C(O)C1CC=CCC1C(=O)NCc1cn2ccccc2n1 (stereo unspecified) | 0.7 |
| COCCCNC(=O)CC1Oc2ccccc2NC1=O (stereo unspecified) | 0.2 |
| Cc1ccc(NC(=O)c2cnn(-c3ccccc3)c2NC(=O)c2ccco2)cc1C | i |
| COc1ccccc1OCc1nc(C#N)c(N2CCC(C(N)=O)CC2)o1 | i |
| Cc1ccc(-n2c(=O)c3sccc3n(CC(=O)NCc3ccco3)c2=O)cc1 | 0.9 |
| COCCCNCCCCOc1c(Cl)cc(C)cc1Br | i |
| CC(C)n1c(C(=O)OCC(=O)NCc2ccc3c(c2)OCO3)cc2sccc21 | 0.5 |
| O=C1CCCCCN1C(=O)c1ccc(C(=O)N2CCCCCC2=O)cc1 | i |
| NS(=O)(=O)c1cc(C(=O)N2CCc3ccccc32)c(Cl)cc1Cl | i |
| COc1ccccc1NC(=O)CSc1nnc(Cc2cccn2C)n1-c1ccc(F)cc1 | i |
| CC12CCC(C(=O)N3CCc4ccccc43)(CC1=O)C2(C)C (stereo unspecified) | 1.5 |

Next section
| mol | H5N1 antiviral |
| --- | --- |
| Cn1c(CNC(=O)c2ccco2)nnc1SCC(=O)Nc1cccc(Br)c1 | i |
| COc1ccc(N(Cc2cc3cc(OC)ccc3[nH]c2=O)C(=O)C2CCCO2)cc1 (stereo unspecified) | 1.2 |
| Cc1ccc(-c2nn(CC(=O)Nc3ccc4c(c3)nc3n4CCOC3)c(=O)c3ccccc23)cc1 | 1.2 |
| COc1cc(NC(=O)CC2NCCNC2=O)cc(OC)c1 (stereo unspecified) | i |
| COCC(=O)NCc1nc2ccccc2n1Cc1ccccc1F | 0.3 |
| CCCn1nc2ccccc2c1P(=N)(N1CCOCC1)N1CCOCC1 | 0.8 |
| COc1ccc(CNC(=S)Nc2cc(C)cc(C)c2)cc1 | i |
| N#Cc1c(-n2cccc2/C=N/O)sc2c1CCCC2 | i |
| NC(=O)c1ccc(NC(=O)CCCc2nc(-c3ccccc3Cl)no2)cc1 | i |
| CCCCNc1nc(N(C)c2ccccc2)nc(-n2ccnc2)n1 | i |
| CCOC(=O)c1c(NC(=O)COC(=O)Cn2c(C(F)(F)F)nc3ccccc32)sc(C)c1C | i |
| CCOC(=O)c1c(C)nc2sc(C(N)=O)c(N)c2c1-c1ccccc1 | 0.8 |
| COc1cccc(-n2c(SC3CCOC3=O)nc3ccccc3c2=O)c1 (stereo unspecified) | i |
| CC(=O)Nc1ccc(S(=O)(=O)NC(CC(=O)N(C)Cc2ccccc2)C(C)C)cc1 (stereo unspecified) | 0.8 |
| Cc1ccc(Nc2nnc(SCn3nnc4ccccc4c3=O)s2)cc1 | 1.4 |
| CCOC(=O)Cn1c(=O)c2c(nc(N3CCCCC3)n2Cc2ccccc2)n(C)c1=O | i |
| Cc1ccc(C)c(NS(=O)(=O)c2cc(C(=O)N3CCc4ccccc4C3)ccc2Cl)c1 | 0.5 |
| CC(Cc1cccs1)NC(=O)Nc1ccc(F)cc1 (stereo unspecified) | 0.2 |
| CCOC(=O)C1=C(C)NC(=O)NC1c1ccc(OC)c(CN2CCOCC2)c1 (stereo unspecified) | i |
| COc1ccc(C(=O)CSc2nc3ccccc3n2CC(=O)c2ccccc2)cc1 | 0.0 |

Structures above containing a CF3 group (2):
| mol | H5N1 antiviral |
| --- | --- |
| Cn1cccc1C(=O)N1CCN(c2cccc(C(F)(F)F)c2)CC1 | i |
| CCOC(=O)c1c(NC(=O)COC(=O)Cn2c(C(F)(F)F)nc3ccccc32)sc(C)c1C | i |

Continuation.
| mol | H5N1 antiviral |
| --- | --- |
| Oc1ccc(N2CCN(C(c3cccnc3)c3nnnn3Cc3ccccc3)CC2)cc1 (stereo unspecified) | 1.3 |
| O=C(Cn1nnc(-c2ccccc2)n1)NCc1cccs1 | 0.9 |
| CCOc1ccc(N2C(=O)CC(N3CCN(C(=O)c4ccco4)CC3)C2=O)cc1 (stereo unspecified) | i |
| CC(c1ccco1)N(C(=O)Nc1ccc(Cl)cc1)c1ccccn1 (stereo unspecified) | i |
| CCCc1nnc(NC(=O)CN2CCN(C)CC2)s1 | 1.5 |
| Cc1cc(Nc2ccc(C)c(C)c2)n2nc(C)nc2n1 | 1.2 |
| O=C(CN1C(=O)c2ccccc2S1(=O)=O)NC1CC2CCC1C2 (stereo unspecified) | 1.3 |
| Cc1ccc(-c2nnc(Nc3ccccc3)o2)cc1 | i |
| CN(C)C(=S)NCc1ccccc1 | i |
| COc1ccc(S(=O)(=O)Nc2ccc3c(c2)COC3=O)cc1OC | 1.7 |
| CC(=O)N1CCc2cc(S(=O)(=O)NCCCN3CCN(Cc4ccccc4)CC3)ccc21 | 1.5 |
| CCOc1ccc(NC(=O)C(=O)NCC2CCCN2CC)cc1 (stereo unspecified) | 0.4 |
| CC(=O)c1sc2nc(C)cc(C)c2c1N | 0.5 |
| CCCCNC(=O)c1ccccc1Cl | i |
| COc1c2ccoc2nc2c(OC)c(OCC(O)C(C)(C)O)ccc12 (stereo unspecified) | i |
| Cc1cc(N2CC(C(=O)NCc3cccs3)CC2=O)ccc1C(C)C (stereo unspecified) | 0.7 |
| COc1ccc2nc(Nc3nc(C)c(CCC(C)C)c(=O)[nH]3)nc(C)c2c1 | 0.8 |
| O=C(NCc1ccc2c(c1)OCO2)C1CCCN1C(=O)Nc1cccc(Cl)c1 (stereo unspecified) | i |
| Cc1ccc(-c2nc3ncccn3c2NC2CCCCC2)o1 | 2.3 |
| CC1CCN(C(=O)CSc2nc3cccnc3n2C)CC1 | i |

The list goes on.
| mol | H5N1 antiviral |
| --- | --- |
| CCc1nc(NCc2ccccn2)c2oc3ccccc3c2n1 | 1.8 |
| N#Cc1nc(COc2ccccc2)oc1NCCN1CCOCC1 | 2.2 |
| CCOC(=O)C1CCCN(c2ncnc3c2cnn3-c2ccc(OC)cc2)C1 (stereo unspecified) | i |
| O=C(Cn1c(-c2ccccc2)noc1=O)Nc1ccc(S(=O)(=O)N2CCOCC2)cc1 | i |
| COc1ccc2c(c1)[nH]c1c(=O)n(CCN3CCCC3)cnc12 | i |
| Cc1ccc(S(=O)(=O)NC(=O)Nc2c(C)n(C)n(-c3ccccc3)c2=O)cc1 | 0.5 |
| CCOCCCNC(=O)CS(=O)(=O)Cc1nc(-c2cccc(OC)c2)oc1C | i |
| CCCCc1ccc(-c2ccc(C)cc2O)nc1 | i |
| Cc1cc(N2CCCCC2)nc(NCc2ccccc2)n1 | 0.8 |
| Cc1ccc(NC(=O)N2CCC(C(N)=O)CC2)cc1 | i |
| COc1ccc(OC)c(NC(=O)CNC(=O)Cn2c(C)cc3ccccc3c2=O)c1 | 0.6 |
| CCOC(=O)C1=C(C)NC(=O)C(C(N)=O)C1c1ccccc1 (stereo unspecified) | i |
| CC1(C)NC(=O)N(CCCOc2ccc3c(c2)CCC3)C1=O | 1.5 |
| S=c1[nH]nc(-c2cc3c(s2)-c2ccccc2CC3)o1 | 1.7 |
| O=S(=O)(NCCc1csc(-c2ccc(C(F)(F)F)cc2)n1)c1ccc2c(c1)OCCO2 | i |
| CCOCCCN(C(=O)c1ccco1)C(C(=O)NC1CCCC1)c1cccc(OC)c1OC (stereo unspecified) | 0.4 |
| COc1ccc(CN2CCCCC2C)c(C)c1C (stereo unspecified) | 1.0 |
| O=C(COC(=O)c1cccc(NC(=O)c2ccco2)c1)c1ccc(Br)cc1 | i |
| Cn1cnnc1SCC(=O)c1c[nH]c2ccccc12 | 0.1 |
| COc1ccc(-c2nn3c(-c4ccc(F)cc4)nnc3s2)cc1 | 0.5 |

Continued, overlapping the part above by 3 compounds.
| mol | H5N1 antiviral |
| --- | --- |
| O=C(COC(=O)c1cccc(NC(=O)c2ccco2)c1)c1ccc(Br)cc1 | i |
| Cn1cnnc1SCC(=O)c1c[nH]c2ccccc12 | 0.1 |
| COc1ccc(-c2nn3c(-c4ccc(F)cc4)nnc3s2)cc1 | 0.5 |
| O=C(CSCc1ccc(Br)cc1)N1CCOCC1 | 1.0 |
| Cc1nnsc1C(=O)NNS(=O)(=O)c1ccccc1 | i |
| Cn1c(=O)c2c(nc(Oc3ccc(-c4ccccc4)cc3)n2C)n(C)c1=O | 1.2 |
| COCCCN1C(=O)C(=O)/C(=C(/O)c2ccccc2)C1c1ccc(N(C)C)cc1 (stereo unspecified) | 0.3 |
| O=C(Nc1cccn2ncnc12)c1ccccc1 | 1.0 |
| N#CCCn1c(SCC(=O)NCc2ccco2)nc2ccccc21 | 8.2 |
| CC(NC(=O)c1ccco1)C(=O)Nc1nc(-c2ccccn2)cs1 (stereo unspecified) | 1.4 |
| CC(C)(C)c1cc(CN2CCCCC2)cc(C(C)(C)C)c1O | i |
| Cc1nn(C(=O)c2cccnc2)c(C)c1Sc1ccc(Br)cc1 | 0.7 |
| O=C(CSc1nnc2scc(-c3ccccc3)n12)NCC1CCCO1 (stereo unspecified) | 2.0 |
| O=S(=O)(NCCc1ccccn1)c1ccc(F)c(F)c1 | 0.9 |
| COc1nc(OC)nc(N2CCC(C(=O)NCc3cccs3)CC2)n1 | 0.7 |
| CC(=O)c1sc(Nc2nc3ccc(F)cc3s2)nc1C | 5.3 |
| CCOc1cc(C2NC(=O)NC(c3ccccc3)=C2C(C)=O)ccc1OCC(N)=O (stereo unspecified) | 1.2 |

Screens as filed in PubChem.

These rows are one share of the data; the hit share may differ from the screen's.
